High-throughput results (PubChem BioAssay)
Methyltransferases = Primary Screen for Target Class Profiling of Small Molecule Inhibitors of Methyltransferases | purified enzyme, MTase-Glo SAH luminescence; stronger effect = lower value | calls only at 40 µM | 25,000 compounds, 3.9% hits; active = -50% or lower on at least one of six enzymes; inconclusive = the cases between; inactive = as a rule above -30% on all six;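 note: enzymes were COMT GAMT GNMT HNMT NNMT and PNMT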
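Each enzyme was assayed with SAM and its substrate. SAH formation detected by MTase-Glo luminescence; single-point 40 uM screen[…].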
Calls only; i = inactive; ? = inconclusive; + = active, no number. % is set by controls: 0 for no effect and ±100 for the full control effect. Some of the compounds tested; the hit share may differ from the screen's.

SMILES	Methyltransferases
Cc1ccc(C#N)c(-c2cc(NCc3cccnc3)nc3[nH]ccc23)n1	i
CCCN1C(=O)c2c(C(=O)NCc3ccccc3F)ncn2CC1(C)C(=O)NCc1ccc(C)cc1 (stereo not drawn)	i
CC(=O)O[C@@H]1C[C@@]2(C)C(CC[C@]3(C)C2CC=C2C4CC(C)(C)CC[C@]4(C(=O)O)CC[C@]23C)C(C)(C)[C@H]1O (stereo partly drawn)	i
CCCCCCCCCCCCCCCCCCOC[C@H](COP(=O)([O-])OCC[N+](C)(C)C)OC	i
CC1(C(=O)NC2CCCCC2)Cn2c(cc3ccccc32)C(=O)N1Cc1ccc(F)cc1 (stereo not drawn)	i
CC(C)c1cccc2c(-c3ccccc3)cc(-c3ccc(-c4ccc(C(=O)O)cc4)[nH]3)nc12	+
C=CC/C=C\C/C=C\CCCCCCCc1cccc(O)c1C(=O)O	?
COc1ccc(NS(=O)(=O)c2cc3[nH]c(=O)[nH]c3cc2C)cc1Cl	i
CCOc1ccccc1CN1C(=O)c2cc(C(C)(C)C)nn2CC1(C)C(=O)NC1CCCCCC1 (stereo not drawn)	i
CC(C(=O)O)c1ccc(/C=C2\CCCCC2=O)cc1 (stereo not drawn)	i
O=C1NC2CCc3nc4ccccc4c(=O)n3C2=Nc2ccccc21 (stereo not drawn)	i
Brc1ccc([C@H]2CN3CCSC3=N2)cc1	i
CN(Cc1ccc(-n2cccn2)cc1)Cc1nc(Cc2cccc(F)c2)no1	i
Cc1ccc(N2C(=O)c3ccc(-c4ccco4)n3CC2(C)C(=O)NC2CCCC2)cc1C (stereo not drawn)	i
CC1CCCC(NC(=O)CCn2ccc3cc(S(=O)(=O)N4CCCC4)ccc32)C1C (stereo not drawn)	i
Cc1ccc(N2C(=O)c3cc4occc4n3CC2(C)C(=O)NC2CCCCCCC2)c(C)c1 (stereo not drawn)	i
Cc1ccc(C2(O)CCN(C(=O)c3cnn4cc(CCO)cnc34)CC2)nc1	i
NC(=O)[C@H](O[C@@H]1O[C@H](CO)[C@@H](O)[C@H](O)[C@H]1O)c1ccccc1	i
CCc1ccccc1S(=O)(=O)NCCn1c(CCc2ccccc2)nc2ccccc21	i
CC1OC(O[C@@H]2[C@@H](O)[C@H](OC(=O)[C@]34CCC(C)(C)C[C@H]3C3=CCC5[C@@]6(C)CC[C@H](O[C@@H]7O[C@H](C(=O)O)[C@@H](O)[C@H](O[C@@H]8OC[C@@H](O)[C@H](O)[C@H]8O)[C@H]7O[C@@H]7O[C@H](CO)[C@H](O)[C@H](O)[C@H]7O)[C@@](C)(C=O)C6CC[C@@]5(C)[C@]3(C)C[C@H]4O)O[C@H](C)[C@@H]2OC2OC(C)C(OC3OCC(O)C(O)C3O)C(O)C2O)C(O)C(O)C1O (stereo partly drawn)	i
CCOC(=O)c1cn(C2CN(S(=O)(=O)c3ccc(C)c(C)c3)C2)nn1	i
CCCSCCCN1C(=O)c2cc3ccc(OC)cc3n2CC1(C)C(=O)NC1CCCCC1 (stereo not drawn)	i
O=c1c2ccccc2nc2n1CCC2O (stereo not drawn)	i
O=C(c1cccs1)N1CCCC(Cc2noc(-c3cnccn3)n2)C1 (stereo not drawn)	i
O=C(c1ccoc1)N1CCCC(n2cc(-c3nc(C4CC4)no3)nn2)C1 (stereo not drawn)	i
COc1cccc(N2C(=O)c3cc4oc(C)cc4n3CC2(C)C(=O)NC2CCCCCC2)c1 (stereo not drawn)	i
O=C(c1ccccc1)N1Cc2[nH]cnc2C[C@H]1c1nc(-c2ccc(Cl)cc2)no1	i
Cn1nc2n(c1=O)CCN(Cc1ccc(Br)s1)CC2	i
Cc1onc(-c2ccccc2)c1C(=O)N1CCN(c2ccc([N+](=O)[O-])cc2Cl)CC1	i
CCC(CC)C(=O)N1CCC2(CC1)C(=O)N(C)c1ccccc12	i
CC(C)NC(=O)CCn1ccc2cc(S(=O)(=O)N3CCCC3)ccc21	i
Cc1cnc(CCNC(=O)c2ccc(C#N)cc2)n1C1CC1	i
CC(C)OCCCNC(=O)c1ccc2c(=O)nc3c(-c4cccc(F)c4)n[nH]n3c2c1	i
NC(=O)[C@@H](Cc1c[nH]c2ccccc12)NC(=O)[C@H]1CN(C(=O)C2CCNCC2)CCN1C(=O)N1CCOCC1	i
CC(C)NC(=O)c1ccc2c(=O)n(Cc3ccccc3)c3nn(CC(=O)NC4CCCC4)c(=O)n3c2c1	i
O=C(CCc1nnc2n(Cc3ccccc3Cl)c(=O)c3ccccc3n12)Nc1ccc(F)c(F)c1	i
COCCn1c(C)cnc1CCNC(=O)NCC(C)C	i
O=C1c2cc3occc3n2CC(C(=O)NC2CCCCCCC2)(c2ccccc2)N1Cc1cccc(F)c1 (stereo not drawn)	i
Cc1ccc(NC(=O)N2CCC(n3c(C)cnc3-c3cccnc3)C2)cc1C (stereo not drawn)	i
Cc1cnc(-c2ccncc2)n1CC1CCN(C(=O)CCCc2ccccc2)C1 (stereo not drawn)	i
CNc1cc2[nH]c(=O)n(-c3ccc(NC(=O)NS(=O)(=O)c4ccc(Cl)s4)cc3)c(=O)c2cc1F	i
C=CCn1c(=O)c2ccc(C(=O)NC(C)C)cc2n2c(=O)n(CC(=O)Nc3ccccc3F)nc12	i
CC(C)(C)c1ccc2c(c1)CC[C@H]2NC(=O)Nc1cccc2[nH]ncc12	?
CC(=O)N1CCn2c3c(c4cc(C)ccc42)CCCC31 (stereo not drawn)	i
CCc1cc2c(-c3ccccc3)cc(=O)oc2cc1OCc1cc(C(=O)OC)oc1C	i
CC[C@H]1OC(=O)[C@H](C)[C@@H](O[C@H]2C[C@@](C)(OC)[C@@H](O)[C@H](C)O2)[C@H](C)[C@@H](O[C@@H]2O[C@H](C)C[C@H](N(C)C)[C@H]2O)[C@](C)(O)C[C@@H](C)C(=O)[C@H](C)[C@H]2OC(=O)O[C@@]21C	i
Cc1ccc(C)c(C(=O)Cn2nc3n(C(C)C)c(=O)c4ccc(C(=O)NC5CCCC5)cc4n3c2=O)c1	i
Cc1cc(Cl)ccc1NC(=O)c1cc2n(n1)CC(C)(C(=O)NC1CCCCC1)N(C)C2=O (stereo not drawn)	i
COc1ccccc1CN1C(=O)c2c(-n3cccc3)c3ccccc3n2CC1(C)C(=O)NC1CCCC1 (stereo not drawn)	i
CCc1ccc(CN2C(=O)c3cc4ccccc4n3CC2(C)C(=O)NCCCOC(C)C)cc1 (stereo not drawn)	i

The last two entries of the part above open the next one:
SMILES	Methyltransferases
COc1ccccc1CN1C(=O)c2c(-n3cccc3)c3ccccc3n2CC1(C)C(=O)NC1CCCC1 (stereo not drawn)	i
CCc1ccc(CN2C(=O)c3cc4ccccc4n3CC2(C)C(=O)NCCCOC(C)C)cc1 (stereo not drawn)	i
CC(CN1C(=O)c2cc(-c3ccco3)nn2CC1(C)C(=O)NC1CCCCCC1)c1ccccc1 (stereo not drawn)	i
CCN1C(=O)c2cc3ccccc3n2CC1(C)C(=O)NCC(=O)NCc1ccc(C)o1 (stereo not drawn)	i
COCCN(Cc1nccs1)Cc1cn[nH]c1-c1ccc(F)cc1	i
CC1CCC(NC(=O)C2(C)Cn3c(cc4occc43)C(=O)N2Cc2ccccc2)CC1 (stereo not drawn)	i
CC(=O)OC1C(OC(=O)c2ccccc2)C2C(=C(C)CCC2(C)C)C23CCC(C)(C2)C(=O)CC13 (stereo not drawn)	i
CCOC(=O)c1cc2n(n1)CC(C)(C(=O)NCCCOC)N(c1ccc(OCC)cc1)C2=O (stereo not drawn)	i
CCOC(=O)c1cc2n(n1)CC(C)(C(=O)NCCC(C)C)N(c1cccc(OC)c1)C2=O (stereo not drawn)	i
Cc1noc(-c2ccco2)c1C(=O)NC(C)c1ccccc1 (stereo not drawn)	i
Cc1ccc(NS(=O)(=O)c2ccc3[nH]c(=O)[nH]c3c2)cc1F	i
CN(C)C(=O)CCN1CCOC(CC(c2ccccc2)c2ccccc2)C1 (stereo not drawn)	i
O=C(c1cc(F)ccc1F)N1CC(c2nc(CCc3ccccc3)no2)C1	i
CCc1ccc(NC(=O)Cn2c(=O)c3cc(Cl)ccc3n3nncc23)cc1	i
CC1(C(=O)NC2CCCCC2)Cn2c(cc3occc32)C(=O)N1Cc1ccccc1Br (stereo not drawn)	i
CC1(C(=O)NC2CCCCC2)Cn2c(nc3ccccc32)C(=O)N1CCc1ccccc1 (stereo not drawn)	i
CC1(C(=O)NC2CCCCCC2)Cn2c(cc3occc32)C(=O)N1Cc1ccc(F)cc1 (stereo not drawn)	i
O=C1c2ccccc2C(=O)c2cc(S(=O)(=O)NC3CCCCC3)ccc21	i
C=Cc1ccc(Cn2nc3n(C)c(=O)c4ccc(C(=O)NC5CCCCC5)cc4n3c2=O)cc1	i
O=C(NCc1ccc(F)cc1)c1ccc2c(=O)nc3c(-c4ccc(Cl)cc4)n[nH]n3c2c1	i
CCc1cc2c(cc3n2CC(C)(C(=O)NC2CCCCCC2)N(CCCN(CC)CC)C3=O)s1 (stereo not drawn)	i
O=S(=O)(Nc1cc(Cl)c(Oc2cnc3ccccc3c2)c(Cl)c1)c1ccc(Cl)cc1Cl	+
CCOc1ccccc1CN1C(=O)c2nc3ccccc3n2CC1(C)C(=O)NC1CCCC1 (stereo not drawn)	i
Cc1ccc(C(=O)N2CCC(Cc3noc(C4CCOCC4)n3)C2)s1 (stereo not drawn)	i
C=C1C[C@@]23CC[C@H]4[C@@](C)(CCC[C@@]4(C)C(=O)OC4OC(CO)C(O)C(O)C4O)[C@@H]2CC[C@]1(OC1OC(CO)C(O)C(O)C1OC1OC(CO)C(O)C(O)C1O)C3 (stereo partly drawn)	i
COc1ccc(CNC(=O)CCc2nnc3n(CCCOC(C)C)c(=O)c4ccccc4n23)cc1	i
O=C(C(Cc1ccccc1)NS(=O)(=O)c1cccc2nsnc12)N1CCN(c2ccccn2)CC1 (stereo not drawn)	i

Eleven compounds from above, sorted by count of non-hydrogen atoms, lowest first:
SMILES	Methyltransferases
Cc1ccc(NS(=O)(=O)c2ccc3[nH]c(=O)[nH]c3c2)cc1F	i
COCCN(Cc1nccs1)Cc1cn[nH]c1-c1ccc(F)cc1	i
Cc1ccc(C(=O)N2CCC(Cc3noc(C4CCOCC4)n3)C2)s1 (stereo not drawn)	i
O=C1c2ccccc2C(=O)c2cc(S(=O)(=O)NC3CCCCC3)ccc21	i
O=C(c1cc(F)ccc1F)N1CC(c2nc(CCc3ccccc3)no2)C1	i
CC1CCC(NC(=O)C2(C)Cn3c(cc4occc43)C(=O)N2Cc2ccccc2)CC1 (stereo not drawn)	i
CC1(C(=O)NC2CCCCC2)Cn2c(nc3ccccc32)C(=O)N1CCc1ccccc1 (stereo not drawn)	i
CCOC(=O)c1cc2n(n1)CC(C)(C(=O)NCCCOC)N(c1ccc(OCC)cc1)C2=O (stereo not drawn)	i
CCc1cc2c(cc3n2CC(C)(C(=O)NC2CCCCCC2)N(CCCN(CC)CC)C3=O)s1 (stereo not drawn)	i
CC(CN1C(=O)c2cc(-c3ccco3)nn2CC1(C)C(=O)NC1CCCCCC1)c1ccccc1 (stereo not drawn)	i
C=C1C[C@@]23CC[C@H]4[C@@](C)(CCC[C@@]4(C)C(=O)OC4OC(CO)C(O)C(O)C4O)[C@@H]2CC[C@]1(OC1OC(CO)C(O)C(O)C1OC1OC(CO)C(O)C(O)C1O)C3 (stereo partly drawn)	i

Continuation.
compound | Methyltransferases
CN1C(=O)c2cc(C(=O)NCc3ccc4c(c3)OCO4)nn2CC1(C)C(=O)NC1CCCC1 (stereo not drawn) | i
CN1CC2(CCCN(C3CCN(C(=O)c4cnccn4)CC3)C2)OC1=O (stereo not drawn) | i
CSc1cccc(CN(C)Cc2cc3n(n2)CCNC3)c1 | i
CCOc1ccc(-c2ccnc(NC[C@@H]3CCCO3)n2)cc1C(=O)O | i
COc1ccc(N2CCN(CCNS(=O)(=O)c3ccc4[nH]c(=O)[nH]c4c3)CC2)cc1 | i
COc1ccccc1N1CCN(C(=O)C[C@@H]2C[C@@H](C(C)C)[C@H](CO)C=C2C)CC1 | i
COc1ccccc1OCC(O)CN1CCN(CC(=O)Nc2c(C)cccc2C)CC1 (stereo not drawn) | i
Cc1cccc(NC(=O)N2CCn3cccc3C2Cc2ccccc2)c1 (stereo not drawn) | i
COc1ccc(C)c2sc(NC(=O)c3ccncc3)nc12 | i
OCCc1cc(CC2(NCc3ccc(CO)o3)COC2)no1 | i
Cc1ccc(CN2CC[C@H](c3nc4cc(C)ccc4o3)C2)cc1 | i
CCOc1ccc(CN2CCN(C/C=C/c3ccccc3OC)CC2CCO)cc1 (stereo not drawn) | i
C=C1[C@H]2CC[C@]3(O)[C@@](CC[C@@H]4[C@](C)(C(=O)O)CCC[C@]43C)(C2)[C@H]1OC(=O)/C(C)=C\C | i
CC(C)N1C(=O)C2(CCN(C(=O)c3ccccc3F)CC2)C1c1ccccc1 (stereo not drawn) | i
CCCn1c(=O)c2ccc(C(=O)NC3CCCC3)cc2n2c(=O)n(CC(=O)c3ccccc3)nc12 | i
CC1(C(=O)NC2CCCCCCC2)Cc2ccccc2C(=O)N1Cc1ccco1 (stereo not drawn) | i
Cc1ccc(CN2CCCOCCNC(=O)[C@@H]3CCCC[C@@H]32)o1 | i
COc1cc(C(=O)O)ccc1OC1OC(CO)C(O)C(O)C1O (stereo not drawn) | i
Cc1nc(C)c(C(=O)N2CCC(Cc3nc(C4CC4)n[nH]3)CC2)s1 | i
CCCn1c(=O)c2cc(Cl)ccc2n2c(=O)n(Cc3ccc(C)cc3)nc12 | i
CCCn1c(=O)c2ccc(C(=O)NC(C)C)cc2n2c(SCC(=O)Nc3cccc(C)c3)nnc12 | i
Cc1cc2c(cc3n2CC(C)(C(=O)NC2CCCCCCC2)N(C2CCCC2)C3=O)o1 (stereo not drawn) | i
CCC(=O)N1CCCC(c2nc(-c3cccnn3)no2)C1 (stereo not drawn) | i
Cc1ccc(C)c(-c2cc(C(=O)N3CCCC3c3nncn3C(C)C)[nH]n2)c1 (stereo not drawn) | i
COc1ccc(-c2cc3n(n2)CC(C)(C(=O)NCc2ccccc2)N(CCCOC(C)C)C3=O)cc1 (stereo not drawn) | i
CCCS(=O)(=O)N1CCC(F)(c2nc(CC(C)C)no2)CC1 | i
